# Bioassay records as filed in PubChem BioAssay.
# gsp antag – qHTS for Antagonists of gsp, the Etiologic Mutation Responsible for Fibrous Dysplasia/McCune-Albright Syndrome: qHTS | gsp-mutant cells, cAMP HTRF, 30 min; control for the full effect not named in the record | Potency, µM (doses to about 76.9 µM), inactives show at the top dose activity change, negative = inhibition, hits mostly inhibitors | 340,000 tested, 0.4% active; active = falling curve of any shape with a large fitted effect; inconclusive = falling curve, mostly with a smaller effect; inactive = flat or rising curve; cell line not stated here;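 note: intracellular cAMP measured with PDE inhibitor Ro 20-1724 present during compound exposure; potency is the fitted concentration of half-maximal effect; % is set by controls: 0 for no effect and ±100 for the full control effect; nearly all actives have a fitted effect of over 65% in size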
#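 G418-selected cells were plated in DMEM/10% FBS for 16-24 h at 37C, then treated with compounds plus the PDE inhibitor […] (300 uM solution added) for 30 min at 37C. Intracellular cAMP was measured by HTRF after 30 min lysis at room temperature.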
# Menin-MLL FL inh – qHTS Assay for Inhibitors Targeting the Menin-MLL Interaction in MLL Related Leukemias: Competition With Fluorescein Labeled MLL-derived Peptide; FP activity change, % at 61.4 µM; Fluorescence polarization, fluorescein-MLL peptide displacement from menin; AID 1766, 2009; 290,000 tested, under 10 active; inconclusive = falling polarisation curve, or a change in total fluorescence; inactive = total fluorescence flat and polarisation flat or rising; no compound was filed as active; the % refers to the polarisation; negative = inhibition;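 note: % of control where 0% means no effect; inhibitors lower the polarisation; unlabelled MLL peptide was the positive control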
# TRPV1 potentiator – HTS Assay for Compounds that Act as Potentiators of the Vanilloid Receptor 1; Transient receptor potential cation channel subfamily V member 1 (Homo sapiens), Q8NER1; TRPV1-expressing cells, Fluo-8 calcium influx, capsaicin EC20 potentiation; host cell line not named in the record; control for the full effect not named in the record; potentiation, % at 8.33 µM; 320,000 tested, 0.02% active; AID 540277, 2011; active means potentiation above 80%; inconclusive means 30% to 80%; inactive means below 30%; note: 0% is about no effect
# Target sequence (Q8NER1 whole entry, looked up): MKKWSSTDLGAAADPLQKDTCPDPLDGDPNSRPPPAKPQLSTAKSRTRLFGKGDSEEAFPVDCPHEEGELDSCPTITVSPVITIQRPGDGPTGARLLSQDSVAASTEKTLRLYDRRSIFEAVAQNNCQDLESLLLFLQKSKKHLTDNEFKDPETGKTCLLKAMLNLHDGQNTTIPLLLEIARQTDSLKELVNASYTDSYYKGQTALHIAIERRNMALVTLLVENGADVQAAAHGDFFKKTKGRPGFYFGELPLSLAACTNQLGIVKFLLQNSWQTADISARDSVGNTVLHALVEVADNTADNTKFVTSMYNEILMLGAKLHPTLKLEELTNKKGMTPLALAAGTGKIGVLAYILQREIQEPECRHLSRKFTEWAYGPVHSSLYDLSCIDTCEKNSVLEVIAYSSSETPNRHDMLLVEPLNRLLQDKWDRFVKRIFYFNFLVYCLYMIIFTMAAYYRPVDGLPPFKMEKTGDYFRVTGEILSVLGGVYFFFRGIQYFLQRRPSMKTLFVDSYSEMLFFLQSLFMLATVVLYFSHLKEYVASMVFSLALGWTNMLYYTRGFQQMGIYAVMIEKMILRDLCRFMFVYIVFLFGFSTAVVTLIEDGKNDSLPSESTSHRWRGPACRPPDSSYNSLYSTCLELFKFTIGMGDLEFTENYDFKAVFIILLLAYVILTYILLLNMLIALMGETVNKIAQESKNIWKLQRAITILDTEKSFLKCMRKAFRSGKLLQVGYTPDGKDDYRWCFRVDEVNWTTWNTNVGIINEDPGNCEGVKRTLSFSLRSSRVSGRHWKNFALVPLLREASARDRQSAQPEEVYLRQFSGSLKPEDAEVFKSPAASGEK
#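 Fluo-8 calcium influx in TRPV1-expressing cells, kinetic read (ex 480/em 520 nm). Compound added and read 3 min for agonist activity, followed by capsaicin at EC20 final and 2 min further read for enhancement.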
# gsp agonist – qHTS for Agonist of gsp, the Etiologic Mutation Responsible for Fibrous Dysplasia/McCune-Albright Syndrome: qHTS. gsp mutant cells, cAMP HTRF, 30 min; control for the full effect not named in the record. Potency, µM (top dose mostly 76.9 µM), inactives show at the highest dose activation (cAMP increase), actives largely listed as activators. 340,000 tested, 0.13% active. AID 624287, 2012; active = well fitted activation curve with a large enough effect; inconclusive = small, poorly fitted or top-dose-only effect, or another doubt; inactive = no such curve, though single readings can be large or run the other way; cell line not stated here;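 note: phosphodiesterase inhibitor Ro 20-1724 added with compounds to block cAMP breakdown; potency is the fitted concentration of half-maximal effect; nearly all actives have a fitted effect of over 60% in size; about a fifth of the inactives were tested at one dose only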
#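 Cells stably selected in G418 were plated at 2000/well, grown 16-24 hr, then given compounds in DMSO with the PDE inhibitor […] (300 uM solution added) for 30 min at 37C; cAMP was read by HTRF.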
# Sfp PPTase inh – qHTS Assay for Inhibitors of Bacillus subtilis Sfp phosphopantetheinyl transferase (PPTase) | 4'-phosphopantetheinyl transferase ffp (Bacillus subtilis), Q9F4F7 | Biochemical Sfp PPTase activity, qHTS | Potency, µM, for the others: max response, negative = inhibition, hits mostly inhibitors | 310,000 tested, 3.5% active | AID 1490, 2009; active = well fitted inhibition curve with a large enough effect; inconclusive = small, poorly fitted or top-dose-only effect, or another doubt; inactive = no such curve, though single readings can be large or run the other way;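 note: the enzyme is Sfp with the accession as filed and its product quenches rhodamine fluorescence; potency is the fitted concentration of half-maximal effect; 0% = enzyme reaction without inhibitor and -100% = no enzyme wells; top concentration of the series not given in the record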
#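 Compounds were incubated with enzyme (final 15 nM) for 15 min at room temperature before substrate addition started the reaction. Fluorescence at 525 nm excitation, 598 nm emission was recorded immediately and after 30 minutes.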
# CtBP-E1A blk – qHTS Assay for Inhibitors of the CtBP/E1A Interaction; CtBP / adenovirus E1A interaction (AlphaScreen); AlphaScreen GST-E1A/His-CtBP binding, 1536-well; stronger effect = lower value; control for the full effect not named in the record; activity change, % (concentration not given with the values); 340,000 tested, 0.49% active; in the data active means activity change below about -65%; inconclusive means about -30% to -65%; inactive means above about -30%; note: % is set by controls: 0 for no effect and ±100 for the full control effect
#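 Steps: dispense buffer (Tris pH 8.0, NaCl 300 mM, TCEP 1 mM, BSA, Tween 20); add 5X protein mix (GST-E1A, His-CtBP, 125 nM each); pin 23 nL compound; 2 h at 37 °C, dark; add 5X beads (50 ug/mL); 1 h; read.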
# ClpP mod – qHTS Assay for Activators of ClpP. purified B. subtilis ClpP, FRET peptide cleavage, 20 min. Potency, µM (doses to about 57.5 µM), inactives show top-dose activity change, negative = active. 340,000 tested, 1.9% active; active = well fitted falling curve with a large enough effect; inconclusive = small, poorly fitted or top-dose-only effect; inactive = no such curve, though single readings can be large or run the other way; note: potency is the fitted concentration of half-maximal effect; the source files actives as falling curves though it sought activators and does not explain the sign; nearly all actives have a fitted effect of over 65% in size; many hits overshoot -100%
# Target sequence (P80244 whole entry, looked up): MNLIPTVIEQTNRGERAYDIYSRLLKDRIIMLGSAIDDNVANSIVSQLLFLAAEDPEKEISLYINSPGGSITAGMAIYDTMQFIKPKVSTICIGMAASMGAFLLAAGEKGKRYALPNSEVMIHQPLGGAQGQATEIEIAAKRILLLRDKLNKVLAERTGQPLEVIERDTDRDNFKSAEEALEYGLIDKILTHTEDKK
#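 FRET quenching reversal measured ClpP activation: 10 microg/mL B. subtilis ClpP at pH 8 with the FRET-FV decapeptide, read at 430 nm after 320 nm excitation. The 20-min minus 0-min signal was scaled between DMSO/no-enzyme wells and ADEP (5.8 microM final).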
# * = called active by the depositor; ? = inconclusive; . = no result given; & = joins results of further samples; [ ] = another dose, or the depositor's remark.
SMILES,gsp antag,Menin-MLL FL inh,TRPV1 potentiator,gsp agonist,Sfp PPTase inh,CtBP-E1A blk,ClpP mod
Cc1ccc(C2=NS(=O)(=O)N(C)C(C(=O)Nc3ccc4c(c3)OCO4)=C2)cc1,?,-1.9,23,?,11%,-10,-0.3%
CC1CN(Cc2nc3c(c(=O)n(C)c(=O)n3C)n2CCCO)CC(C)O1 (stereo not given),9%,1.1,14,36%,18%,42,-0.9%
Cc1ccc(SCC(=O)Nc2ncc(C)s2)cc1,0%,-2.4,7,20%,1%,-2,2.3%
Cc1ccc(/C=N/NC(=O)C[n+]2ccccc2)s1,-3%,2.0,-4,?,17%,?,.
CC(Sc1nnc(-c2ccncc2)n1C)C(=O)Nc1nccs1 (stereo not given),6%,-1.6,5,?,6%,4,.
O=C(Cc1cccs1)N(c1ccccc1)C1C=CS(=O)(=O)C1 (stereo not given),-1%,0.1,8,3%,-5%,-12,-1.7%
CCOC(=O)c1[nH]c2cc3c(cc2c1NC(=O)CN1CCc2ccccc2C1)OCO3,-3%,5.2,15,-5%,-10%,-24,3.2µM*
O=C(O)Cn1nc(-c2ccccc2)ccc1=O,-14%,1.3,1,-34%[15.4 µM],8%,8,2.2%
O=S(=O)(c1ccc(SCCOc2cccc(Br)c2)nc1)N1CCCC1,-10%,.,-5,?,.,4,-1.7%
COCCCn1c(SCC(=O)Nc2oc(C)c3c(C)n[nH]c(=O)c23)nc2sc3c(c2c1=O)CCC3,-5%,.,-1,-8%,.,0,-1.8%
CCN(CC)C(=O)c1c(-c2ccccc2)oc2ccc(OC)cc12,7%,7.3,-5,-1%[15.4 µM],0%,4,.
C/C(=N\NC(=O)c1cc(C)[nH]n1)c1ccc(-c2ccccc2)cc1,-12%,-1.8,2,1%,9%,6,.
Cc1ccccc1-c1nc(CS(=O)(=O)CC(=O)NC2CCCCC2C)c(C)o1 (stereo not given),-5%,-3.4,1,?,-6%,-5,-1.6%
Cc1nc2ccccc2n1Cc1ccc(Cl)cc1,-15%,-2.3&-4.1,-7,.,12%&9%,-12,-11%
C=C(C)CNC(=S)Nc1cccc(N)n1,8%,0.0,17,22%[15.4 µM],-4%,4,.

# Compound profiles, from the list above:
# `CCN(CC)C(=O)c1c(-c2ccccc2)oc2ccc(OC)cc12` is listed as gsp antag = 7%; Menin-MLL FL inh = 7.3; TRPV1 potentiator = -5; gsp agonist = -1%[15.4 µM]; Sfp PPTase inh = 0%; CtBP-E1A blk = 4; ClpP mod = .
# `O=C(O)Cn1nc(-c2ccccc2)ccc1=O` is listed as gsp antag = -14%; Menin-MLL FL inh = 1.3; TRPV1 potentiator = 1; gsp agonist = -34%[15.4 µM]; Sfp PPTase inh = 8%; CtBP-E1A blk = 8; ClpP mod = 2.2%

# Following part:
SMILES,gsp antag,Menin-MLL FL inh,TRPV1 potentiator,gsp agonist,Sfp PPTase inh,CtBP-E1A blk,ClpP mod
COc1ccc(/C(N)=N/OC(=O)c2ccco2)cc1OC,11%,1.5,6,1%[15.4 µM],15%,.,.
CCCOc1ccc(N2C(=O)CC(NCc3ccncc3)C2=O)cc1 (stereo not given),-3%,4.6,-17,-36%[inhibitor],19%,2,-1.1%
CSc1ccccc1NC(=O)CN(C)C(=O)COc1cccc2cccnc12,-1%,.,.,7%,.,-85*,-4.2%
CCCCNC(=O)C1CCC(CNc2nc(=S)[nH]c3ccccc23)CC1 (stereo not given),4%,2.0,15,5%[15.4 µM],0%,4,0.5%
CC(C)CCNC(=O)c1cn(CC(C)C)c(=O)c2c1c1ccccc1n2C,9%,-6.7,29,-2%,9%,.,?
CCOC(=O)Cn1c(=O)oc2cc(S(=O)(=O)NCc3cccs3)ccc21,4%,4.3,6,6%,22%,0,-1.1%
CCNc1nc(CN2CCOCC2)nc2sc3c(c12)CCC3,4%,-0.1,26,6%,19%,7,-3.8%
CC(=O)Nc1ccc(S(=O)(=O)NCc2nc(-c3cccc(C)c3)no2)cc1,5%,.,4,1%[15.4 µM],2%,2,.
CN(Cc1ccccc1)C(=O)COC(=O)COc1ccc(Cl)cc1,2%,.,.,-36%[inhibitor],.,0,-1.2%
Cc1ccc(N=C(N)N=C(N)N)cc1,21%,0.0,0,-31%[inhibitor],12%,6,0.3%
CCOC(=O)c1c(-c2ccc(C)o2)csc1NC(=S)NC(=O)N(C)C,-27%,4.2,2,?,56µM*,-18,-0.9%
NC(=O)CCn1c(C(=O)c2cc(Cl)c(N)c(Cl)c2)c2ccccc2[n+]1[O-],-6%,5.0,16,32%,3%,0,-1.4%
O=C(O)c1ccc(/C=N/NC(=O)c2cc(-c3cccs3)nc3ccccc23)cc1,-23%,4.9,13,18%,26%,-26,?
O=C(NCCN1CCOCC1)c1ccc(/C=C2\Sc3ccccc3N(Cc3ccc(F)cc3)C2=O)cc1,-18%,-0.9,0,9%,?,-1,-4.0%
COC(=O)/C=C1\S/C(=N/NC(=O)c2ccccc2)NC1=O,-17%,3.1,-1,-42%[inhibitor],-5%,-2,0.6%
COc1ccc(OC)c(S(=O)(=O)N/N=C\c2cn(CC(N)=O)c3ccccc23)c1,5%,.,-1,8%[15.4 µM],-15%,-5,-2.2%
COc1ccc(C(CNC(=O)c2ccccc2C)N2CCCC2)cc1 (stereo not given),5%,-1.8,-12,10%,15%,-3,-3.1%
Oc1c(Br)cc(/C=N/NC(=S)NCC2CCCO2)cc1Br (stereo not given),1%,4.7,7,5%[15.4 µM],-5%,-5,-5.0%
O=C(Nc1cnccn1)c1ccc(Cl)cc1,7%,0.0,-24,1%,5%,6,.
COc1ccc(-c2c[n+]3c(n2-c2ccccc2)SCC3)cc1,-1%,0.3,-1,1%,25%,4,.
N#CCCn1cc(C(=O)O)c(-c2cccs2)n1,6%,-4.1,8,-43%[inhibitor],2%,.,-1.5%
CCC(CC)c1nc2cc(OC)c(OC)cc2c(=O)o1,-9%,5.5,-7,-46%[inhibitor],-2%,6,-11%
CC(NC(=O)Cn1nnc(-c2ccncc2)n1)c1ccccc1 (stereo not given),.,2.2,26,.,32%[activator],.,.
Cc1cc(C)c(NC(=O)/C=C\C(=O)O)c(Cl)c1,9%,-0.5,1,4%[15.4 µM],-17%,-6,-1.7%
O=C1CC(/C=C/c2cccnc2)=Nc2ccccc2N1,-1%,-0.5,-15,24%,10%,-2,.
N#CCOC(=O)/C=C/c1ccc2c(c1)OCO2,4%,-0.3,13,-18%[15.4 µM],6%,?,.
C=CCn1c(CNC(=O)c2ccco2)nnc1SCC(=O)N1c2ccccc2Sc2ccccc21,-10%,2.3,15,15%,2%,-14,-0.6%
Cc1cccc2cc(CN(C(=O)c3cccc([N+](=O)[O-])c3)C(C)C)c(=O)[nH]c12,1%,6.4,1,10%[15.4 µM],11%,7,.
O=C(NCc1ccccc1)c1cccc(OCC(=O)N2CCN(C(=O)c3ccco3)CC2)c1,-9%,3.8,3,-28%,-6%,1,-1.8%
CC(C)(C)c1n[nH]c(=S)n(N)c1=O,10%,2.9,21,-4%,?,-6,1.1%

# Given with bars between the fields: entries from further up
smiles | gsp antag | Menin-MLL FL inh | TRPV1 potentiator | gsp agonist | Sfp PPTase inh | CtBP-E1A blk | ClpP mod
Cc1cccc2cc(CN(C(=O)c3cccc([N+](=O)[O-])c3)C(C)C)c(=O)[nH]c12 | 1% | 6.4 | 1 | 10%[15.4 µM] | 11% | 7 | .
O=C(NCc1ccccc1)c1cccc(OCC(=O)N2CCN(C(=O)c3ccco3)CC2)c1 | -9% | 3.8 | 3 | -28% | -6% | 1 | -1.8%
CC(C)(C)c1n[nH]c(=S)n(N)c1=O | 10% | 2.9 | 21 | -4% | ? | -6 | 1.1%

# (list continues)
SMILES,gsp antag,Menin-MLL FL inh,TRPV1 potentiator,gsp agonist,Sfp PPTase inh,CtBP-E1A blk,ClpP mod
CC1CCN(CCCNC(=O)CN2C(=O)CSc3ccc(S(=O)(=O)N4CCOCC4)cc32)CC1,-8%,.,2,0%,16%,3,-0.7%&-2.6%
S=C(NCCCN1CCOCC1)N1CCN(c2ccccc2)CC1,5%,-3.2,6,4%[15.4 µM],14%,9,0.6%
O=C(NNC(=O)c1ccccc1-n1cccc1)c1cccnc1,.,.,.,-2%,.,5,0.6%
COc1ccc2c(CC(=O)N3CCN(S(=O)(=O)c4cccs4)CC3)coc2c1,?,1.2,-15,-28%,-7%,-6,-4.9%
CC(CCc1ccccc1)NC(=O)c1cccs1 (stereo not given),-2%,2.2,3,-5%,5%,-4,-2.4%
Cn1ncc2c(Nc3cccc(Cl)c3)nc(Nc3cccc(Cl)c3)nc21,-18%,0.7,28,0%,6%,-1,.
Cc1cccc(C(=O)N2CCCC(c3nc(-c4ccc(C)o4)no3)C2)c1 (stereo not given),-9%,0.2,15,3%,-13%,-3,.
Cc1c(CNCCc2ccccc2Cl)c(C(=O)O)c(C)n1-c1ccccc1,-2%,8.2,?,5%,7%,.,0.8%
O=C(NCCCn1ccnc1)c1ccc(S(=O)(=O)N2CCOCC2)cc1,10%,3.0,8,16%[15.4 µM],15%,-13,-1.0%
CC(=O)CCc1ccc(OCCCOc2cccc3cccnc23)cc1,-23%,0.6,?,-1%,4%,.,-6.4%
Cc1sc2ncnc(NCC(O)c3ccccc3)c2c1C (stereo not given),-11%,.,-3,-3%[15.4 µM],6%,-4,.
COc1ccc(-c2nc(CN3CCCCC3c3nccn3C)c(C)o2)c(C)c1C (stereo not given),-15%,3.1,-6,2%,6%,-8,.
Cn1ccnc1SCCNC(=O)CCc1nnc(CCCCc2ccccc2)o1,6%,0.1,3,-1%,4%,7,.
O=C(NCc1ccccn1)c1ccccc1OCc1ccc(F)cc1,3%,.,-1,-4%[15.4 µM],.,-25,-3.5%
